Screens: PubChem BioAssay, several laboratories
A1 inh = caspase 3/7 activation in MEF A1-2A-BIM cells, primary screen, A1 inhibitor project, cell-based, luminescence, HTS; Caspase-Glo 3/7 luminescence, 3 h; percent of clofoctol response, vehicle zero; caspase activation, % (concentration not given with the values); actives 0.066% (n = 330,000);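 active = over half of replicate activation scores above 10%, or exactly half above 10 with the replicate mean above 10; inconclusive = replicate mean below 10 yet half the replicates above 10; inactive = over half of replicates below 10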;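 note: wells of about 30 µL received 50 nL stock; many hits fall short of the cut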
RanGTP-Impb inh = inhibitors of RanGTP-importin-beta interaction, primary screen, biochemical, FRET, CFP-Ran, YFP-importin-beta, homogeneous. cell-free CFP-Ran/YFP-importin-beta FRET ratio. inhibition, % (concentration not given with the values). actives 1.1% (n = 300,000);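 active = most replicates above 15%; inconclusive = exactly half above 15%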;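 note: 0% = DMSO wells and 100% = Ran loaded with GDP instead of GTP; wells of about 40 µL received 100 nL stock; the first replicate is given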
Beta cell apopt = inhibitors of cytokine-induced beta cell apoptosis, primary screen, luminescence | INS-1E cytokine-induced death, ATP luminescence, 48 h; percent of positive-control rescue, neutral wells zero | protection from apoptosis, % (test concentration not listed) | actives 0.8% (n = 300,000) | AID 435005, 2010;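 active = all replicates at 75% or more, or half of them and the mean; inconclusive = half reach 75% but not the mean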;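 note: 0% = cytokine-treated negative control wells and 100% = positive control rescue; higher means more ATP so stronger rescue from cytokine killing; wells of about 40 µL received 100 nL stock; the first replicate is given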
Calb FLC = C. albicans growth inhibition with fluconazole, primary screen, CaCi-2 strain, Alamar Blue fluorescence; C. albicans CaCi-2 (fluconazole-resistant clinical isolate) + fluconazole, 48 h; growth inhibition, % (concentration not given with the values); actives 0.57% (n = 300,000);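 active = most replicates above 75%; inconclusive = exactly half above 75%; inactive = most below 75%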;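 note: all wells also contain fluconazole at 8 µg/ml as a sub-toxic cotreatment; 0% = median of DMSO wells and 100% = median of geldanamycin control wells; wells of about 8 µL received 7.5 nL stock; the first replicate is given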
T cruzi inh = inhibitors of intracellular T. cruzi growth, primary screen, luminescence, NIH3T3 host cells | actives 1.4% (n = 300,000) | AID 1885, 2009 | T. cruzi beta-gal in NIH3T3, 90 h | inhibition, % (test concentration not listed);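 active = mean inhibition across valid replicates above about 55%, limit read from the data; inconclusive = mean below that limit but half or more replicates reach it; inactive = mean below it, under half of replicates reach it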;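 note: signal also drops with host cell toxicity which is not excluded here; 0% = plate median of DMSO wells and 100% = zero luminescence signal; higher percent means less beta-gal luminescence so fewer parasites; stock transfer was 50 nL into about 50 µL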
Vif A3G = inhibitors of Vif binding to APOBEC3G peptide, primary screen, biochemical, TR-FRET, GST-Vif 1-94, biotin-A3G peptide, dose response retest (AID 1117319); Virion infectivity factor (Human immunodeficiency virus type 1 group M subtype B (isolate …; actives 0.57% (n = 260,000); TR-FRET GST-Vif / biotin-A3G peptide binding; higher % means a stronger effect; test concentration not given here; strong numbers were not always called active; one-dose inhibition, %; IC50 in µM for titrated hits;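 active = above the screen mean plus three standard deviations and confirmed in dose response; inconclusive = results disagree or hit not tested in dose response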;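 note: Vif residues 1-94 fused to GST binding biotinylated APOBEC3G peptide 110-148; 0% = full assay without inhibitor and 100% = GST in place of GST-Vif; retest series ran down from 100 µM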
MLL AF4-AF9 inh = inhibitors of AF4 peptide binding to AF9, primary screen, biochemical, AlphaScreen, biotin-AF4 peptide, FLAG-AF9, single point. inhibition, % at 10 µM. Protein AF-9 (Homo sapiens), P42568. actives 0.47% (n = 350,000);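 active = every replicate reaching a set inhibition limit, whatever the replicate mean, cut at about 25% in these data; inconclusive = mean inhibition reaches that limit but some replicates miss it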;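 note: 0% = plate neutral control median and 100% = total signal loss; the record names both 10 and 1 µM as test concentration; the first replicate is given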
Target sequence (P42568 whole entry, looked up): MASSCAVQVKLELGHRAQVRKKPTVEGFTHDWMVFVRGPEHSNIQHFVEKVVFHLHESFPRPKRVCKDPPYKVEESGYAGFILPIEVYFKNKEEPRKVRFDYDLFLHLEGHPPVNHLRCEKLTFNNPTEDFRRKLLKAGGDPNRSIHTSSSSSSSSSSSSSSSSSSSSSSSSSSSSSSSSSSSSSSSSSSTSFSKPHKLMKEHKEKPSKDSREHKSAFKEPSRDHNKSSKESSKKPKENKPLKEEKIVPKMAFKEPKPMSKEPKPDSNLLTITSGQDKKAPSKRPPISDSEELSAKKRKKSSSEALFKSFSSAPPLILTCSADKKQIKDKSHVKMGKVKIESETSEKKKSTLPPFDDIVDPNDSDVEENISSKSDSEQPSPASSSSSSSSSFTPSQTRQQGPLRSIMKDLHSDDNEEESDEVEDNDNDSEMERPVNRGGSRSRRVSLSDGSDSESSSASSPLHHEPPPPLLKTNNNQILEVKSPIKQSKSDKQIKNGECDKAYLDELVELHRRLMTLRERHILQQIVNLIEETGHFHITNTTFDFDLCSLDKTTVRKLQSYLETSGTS
LANA-H2A inh = blockers of LANA interaction with H2A/H2B – biochemical, FP readout, HTS, primary screen; actives 0.6% (n = 320,000); Protein LANA1 (Human herpesvirus 8 type P (isolate GK18)), Q9QR71; cell-free LANA-H2A/H2B peptide, fluorescence polarization; inhibition, % (concentration not given with the values); AID 2629, 2010; in the data active = inhibition mostly above about 10%, no sharp cut-off; inactive = mostly below about 6.7%;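 note: stock transfer was 7.5 nL into about 10 µL; 0% = median of vehicle wells and 100% = median of positive control wells; one replicate is shown; the record names a cut of 25% in any replicate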
An asterisk follows results filed as active; ? = inconclusive; / = no result given; & = joins results of further samples.

SMILES	A1 inh	RanGTP-Impb inh	Beta cell apopt	Calb FLC	T cruzi inh	Vif A3G	MLL AF4-AF9 inh	LANA-H2A inh
CC(C)C(OC(=O)c1nsc(Cl)c1Cl)C(=O)NC1CCCCC1 (stereo not drawn)	0.0	-1.3	1	-12	-5	/	2.5	1.5
CCOC(=O)c1[nH]c2ccc(OC)cc2c1NC(=S)N1CCN(c2ccc(F)cc2)CC1	0.2	-1.8	4	?	5	/	/	-1.2
Cc1c(C=NCCOCc2ccccc2)cnn1C	?	1.0	-2	-2	-15	-2%	/	-4.6
CCc1cc2c(COC(=O)CCNS(=O)(=O)c3cccc(C(F)(F)F)c3)cc(=O)oc2cc1O	0.8	/	3	/	/	4%	2.2	7.4
Cc1nc2ccccn2c1C(=O)NCc1cccnc1	1.0	0.1	-3	4	-17	-7%	-5.2	-5.2
COc1ccc(N2CCN(C(=O)c3cn(Cc4ccccc4)nc3-c3cccnc3)CC2)cc1	0.5	/	-7	/	/	16%	4.5	-1.7
O=C1CSC(c2cn(-c3ccccc3)nc2-c2ccc3c(c2)OCCO3)N1CCN1CCOCC1 (stereo not drawn)	-0.2	-1.7	-9	-1	10	13%&2%	/	-0.9
O=C(c1ccccc1)c1ccc2cc(O)ccc2c1	-11	-3.6	12	6	-2	/	5.5	-1.9
COc1ccc(NC(=O)Nc2cnccn2)cc1	-1.1	?	-2	-8	7	?	-1.4	1.4
COc1ccc(C(=O)NNC2=CC(=O)CC(C)(C)C2)cc1OC	1.1	26*	-7	-1	-8	5%	/	-4.6
CN(C)S(=O)(=O)c1ccc(C(=O)NCC2(N3CCCCC3)CCCCC2)cc1	0.1	7.9	-5	12	7	-6%	-4.7	2.4
CCCC/C(O)=C1\C(=O)CC(C)(C)CC1=Nc1ccc(N)cc1	0.2	?	-8	27	17	2%	-0.5	-1.8
CN(Cc1nc(-c2ccccc2)no1)C1CCOCC1	-0.5	2.3	1	1	-8	17%	3.2	0.1
CC(=O)Nc1ccc(NS(=O)(=O)c2cccc3ccccc23)cc1	-0.1	2.6	2	-8	/	-3%	/	-8.2
Cc1cccc(Cc2cnc(NC(=O)C3=NCCN3)s2)c1	-0.2	-0.4	3	12	-1	4%	-1.4	-2.1
CCNS(=O)(=O)c1ccc(OC)c(C(=O)NC2CCCCC2)c1	1.3	-0.3	/	-3	5	/	/	1.8
Cc1ccc(-c2nnn(CC(=O)NCC3CC3)n2)o1	0.4	-4.5	-5	0	4	5%	/	3.1
N#CCCSc1ncnc2c1oc1ccccc12	0.0	0.8	5	19	1	-6%	/	-1.0
COc1cccc(CN2CCN(C3CSCCSC3)CC2CCO)c1 (stereo not drawn)	1.0	0.5	-5	8	-1	/	2.8	3.2
COc1ccc(C(c2nnnn2CS(=O)(=O)c2ccc(C)cc2)N2CCN(c3ncccn3)CC2)cc1 (stereo not drawn)	-0.8	3.0	-6	46	16	9%	/	-2.6
Cc1nnc(OCc2nc3ccccc3n2C)c2ccccc12	-1.0	7.9	-2	-4	16	-3%	/	-5.6
Cc1ccccc1-c1nc(-c2ccc(NC(=O)c3ccc(Br)o3)cc2)no1	-3.6	2.4	6	7	35	-13%	/	4.3
COc1cc(/C=N/NC(=O)c2ccc3nc[nH]c3c2)cc(OC)c1OC	-0.2	4.2	0	-3	-34	-8%	/	4.1
CCOC(=O)N1CCC(N2C(=O)c3ccccc3C2Nc2ccc(S(=O)(=O)N3CCCCC3)cc2)CC1 (stereo not drawn)	0.1	-0.8	5	56	3	/	/	2.0
CCOC(=O)C1CCN(CC(=O)N2C(C)CCCC2C)CC1 (stereo not drawn)	1.0	?	-3	10	-8	0%	/	2.3
CCOc1ncccc1C(=O)N1CCN(c2cccc(C)c2C)CC1	/	4.1	/	4	-52	/	2.6	/
O=C(C1=C[C@@H](c2coc3ccccc3c2=O)C[C@@H](OCCCCO)O1)N1CCN(Cc2ccc3c(c2)OCO3)CC1	0.1	2.8	1	-5	5	0%	4.9	-1.5
COc1cc(C(=O)N2CCN(CCCc3ccccc3)CC2)cc(OC)c1OC	0.6	3.1	-1	-4	8	/	/	-0.6
CC1=NN(C(=O)c2ccccc2F)C(O)(c2ccc(Cl)cc2)C1 (stereo not drawn)	-0.5	0.4	-2	-11	-6	/	-2.5	1.4
CCCCC(=O)NC(Nc1cc(C)ccn1)(C(=O)OCC)C(F)(F)F (stereo not drawn)	0.0	3.1	-1	7	-14	-2%	/	0.7

Further results follow:
SMILES	A1 inh	RanGTP-Impb inh	Beta cell apopt	Calb FLC	T cruzi inh	Vif A3G	MLL AF4-AF9 inh	LANA-H2A inh
Cc1ccc(NC(=O)CSc2nccn2Cc2ccco2)c(C)c1	0.3	?	1	2	-3	/	3.6	-3.1
O=C(CSc1nnc(-c2cccnc2)n1C1CCCCC1)NC1CCCCC1	-0.2	-4.5	-5	-10	-4	67%	/	-1.0
COC(=O)C1CCN(S(=O)(=O)c2cn(C)c(=O)n(C)c2=O)CC1	-0.5	6.5	-5	-3	-17	-1%	-4.6	-7.9
O=C(NCC1CCCO1)C1CCN(C(=O)c2ccc(Br)cc2)CC1 (stereo not drawn)	-0.1	3.5	1	-23	-9	1%	1.9	2.8
CCc1ccc(NC(=O)C2CCCN(S(=O)(=O)c3ccc4c(c3)CCCN4C(C)=O)C2)cc1 (stereo not drawn)	1.2	0.2	2	-27	3	-1%	2.6	-3.5
CCOc1ccc(N2C(=O)S/C(=C\c3ccc(O)c(OCC)c3)C2=O)cc1	-0.2	-3.8	17	0	0	9%	4.0	-7.8
COCCCNC(=O)COc1ccc(S(=O)(=O)Nc2ccccc2)cc1	1.2	-0.1	-2	-4	4	3%	/	0.1
Cc1[nH]n(-c2ccccc2)c(=O)c1C=NCc1ccco1	1.3	0.0	-4	-12	11	/	/	4.5
COC(=O)c1cc(NC(=O)c2ccc(OC)cc2)c(=O)oc1C	-6.5	6.0	/	8	7	6%	-1.6	-0.8
COc1cccc(C(=O)Nc2ccc(NC(=O)c3ccco3)c(Cl)c2)c1	-5.9	2.8	-8	-1	6	-3%	0.4	4.2
O=S(=O)(Nc1ccccc1)c1ccc(S(=O)(=O)N2CCCC2)cc1	1.0	/	-1	/	/	-6%	-0.4	4.7
O=C(c1cc(Cl)cc(Cl)c1)N1CCOCC1	0.6	8.1	-6	-27	-17	5%	/	3.1
COc1ccc(NC(=O)CN(C)C(=O)CCCc2c[nH]c3ccccc23)cc1	0.0	2.8	-1	/	1	2%	-35	1.0
COC(=O)C(C)NC(=O)C12CC3CC(CC(C3)C1)C2 (stereo not drawn)	-0.2	1.2	-3	11	8	-5%	/	-3.8
Cc1ccccc1NC(=O)c1ccc(CN2CCC(Cc3ccccc3)CC2)cc1	0.1	0.4	4	1	27	-2%	/	-2.4
CNC(=O)c1ccccc1Sc1cccc2cccc(C(=O)O)c12	2.2	1.5	-4	-7	-8	-5%	-11	1.0
COc1ccccc1N=C1SC(C(=O)Nc2cccc(Cl)c2Cl)C(N)=C1C(N)=O (stereo not drawn)	-0.4	11	3	9	17	-10%	-30	7.1
CC(C)NS(=O)(=O)c1ccc(CCC(=O)NCc2ccco2)cc1	-0.1	-0.4	2	-5	-8	?	/	-4.1
Cc1nn(-c2ccccc2)c(C)c1C(=O)OCC(=O)Nc1ccccc1	-7.1	/	0	/	/	1%	0.1	4.3
COc1ccc(OC)c(C(C)NC(=O)c2ccco2)c1 (stereo not drawn)	0.2	?	-3	-9	2	5%	/	6.4
COCCN(C(=O)COC(=O)c1ccc(Cl)s1)c1c(N)n(Cc2ccccc2)c(=O)[nH]c1=O	0.2	5.1	-7	-5	-5	-1%	-1.1	-0.1
O=C(Nc1ccccc1SCC1CSc2nc3ccccc3c(=O)n21)c1ccccc1 (stereo not drawn)	1.4	4.3	4	-1	13	-7%	/	-1.8
Cc1cc(NC(=O)C2CC(=O)N(c3ccccc3)C2)no1 (stereo not drawn)	0.4	0.1	7	2	-7	/	/	-2.2
NC(=S)N/N=C/c1ccccc1OC(=O)/C=C/c1ccccc1	-0.8	1.9	/	-3	-18	2%	6.1	-1.3
Cn1c(=O)c2cc(S(=O)(=O)NCCC(=O)NCCc3ccc(Cl)cc3)ccc2n(C)c1=O	0.0	-0.6	-1	27	-22	?	/	7.5
COCCN(C(=O)c1ccccc1OC1CCN(S(C)(=O)=O)CC1)C(C)C	0.2	1.5	-6	19	-1	-4%	-1.9	3.3
COc1cccc(-c2cc(C(=O)NCc3ccco3)c3ccccc3n2)c1	-0.3	2.2	-5	5	4	6%	-6.1	0.5
Cc1nnc(SC(C)C(=O)NC2CCCCC2C)s1 (stereo not drawn)	-0.4	0.3	-1	-1	3	2%	-4.7	3.4
Cc1cccn2c(=O)c(C(=O)NC3CCCCC3)c(O)nc12	0.1	-0.4	-4	-4	-1	2%	-16	3.7
COc1ccc(CCn2c(NCCCN3CCOCC3)nc3c2c(=O)[nH]c(=O)n3C)cc1	-0.1	8.1	4	-10	2	10%	/	3.5

Next section; the last 3 above are carried over.
SMILES	A1 inh	RanGTP-Impb inh	Beta cell apopt	Calb FLC	T cruzi inh	Vif A3G	MLL AF4-AF9 inh	LANA-H2A inh
Cc1nnc(SC(C)C(=O)NC2CCCCC2C)s1 (stereo not drawn)	-0.4	0.3	-1	-1	3	2%	-4.7	3.4
Cc1cccn2c(=O)c(C(=O)NC3CCCCC3)c(O)nc12	0.1	-0.4	-4	-4	-1	2%	-16	3.7
COc1ccc(CCn2c(NCCCN3CCOCC3)nc3c2c(=O)[nH]c(=O)n3C)cc1	-0.1	8.1	4	-10	2	10%	/	3.5
CCNC(=O)/C(C#N)=C/c1c(N2CCN(c3cccc(Cl)c3)CC2)nc2c(C)cccn2c1=O	0.9	6.3	9	-3	21	-6%	0.0	2.8
O=c1[nH]c2ccc(Cl)cc2c(-c2ccccc2)c1SC(=S)N1CCOCC1	-0.1	6.9	11	48	29	2%	/	4.2
CC1CC(O)(Cc2ccccc2)C(C)CN1C (stereo not drawn)	1.0	0.0	3	?	-20	-2%	/	2.2
Cc1cc(N2C(=O)c3ccc(C(=O)Nc4ccc(CC(=O)O)cc4)cc3C2=O)no1	-0.6	2.8	-2	7	-9	/	-5.7	-1.8
CCNC(=S)N/N=C/c1ccc(OCCOc2ccccc2C)cc1	-1.1	1.0	-6	-11	46	-3%	/	-0.6
